VDR inh: Inhibitors of the vitamin D receptor (VDR): qHTS; Vitamin D3 receptor (Homo sapiens), P11473; VDR-SRC2-3 peptide fluorescence polarization, 2 h; AID 504847, 2011; Potency, µM, inactives show max response, negative = inhibition, usual class: inhibitors; actives 0.93% (n = 400,000); active = well fitted inhibition curve with a large enough effect; inconclusive = small, poorly fitted or top-dose-only effect, or another doubt; inactive = no such curve, though single readings can be large or run the other way; note: series mostly up to about 120 µM
Target sequence (P11473 whole entry, looked up): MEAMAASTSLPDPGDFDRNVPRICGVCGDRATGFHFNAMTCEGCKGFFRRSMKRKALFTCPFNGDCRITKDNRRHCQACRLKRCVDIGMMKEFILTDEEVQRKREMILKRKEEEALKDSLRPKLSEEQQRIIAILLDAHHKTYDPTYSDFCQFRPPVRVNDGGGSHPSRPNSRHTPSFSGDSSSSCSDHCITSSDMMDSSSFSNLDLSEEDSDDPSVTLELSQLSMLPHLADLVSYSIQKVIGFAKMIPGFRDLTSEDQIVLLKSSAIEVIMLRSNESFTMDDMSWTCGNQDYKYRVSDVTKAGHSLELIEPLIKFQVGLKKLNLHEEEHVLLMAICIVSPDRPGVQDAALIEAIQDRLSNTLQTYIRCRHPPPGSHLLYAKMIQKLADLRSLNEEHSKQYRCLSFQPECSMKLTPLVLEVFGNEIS
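Signal is fluorescence polarization, reporting how far test compounds block the interaction of VDR with the SRC2-3 coregulator peptide after a 2 h room-temperature incubation.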
Numbers without * were called inactive; ? = inconclusive; & = joins results of further samples. % is set by controls: 0 for no effect and ±100 for the full control effect; potency is the fitted concentration of half-maximal effect. Only part of the results is shown (hit frequency here may not be typical).

SMILES	VDR inh
COC(=O)/C(=C\c1cc(OC)c(OC)c(OC)c1)c1nc2ccccc2[nH]1	?
O=S(=O)(Nc1cccc(Cl)c1)c1ccc2[nH]c3c(c2c1)CCCCCC3	6%
COc1ccc(N2CCN(S(=O)(=O)c3cc4c(cc3C)NC(=O)CO4)CC2)cc1	-11%
CCCn1c(SCC(=O)N2CCN(C(=O)c3ccco3)CC2)nc2ccccc2c1=O	-5%
CCN(CC)CCOC(=O)c1cccc(Cl)c1	20%
O=C(COC(=O)c1ccc(Br)c(S(=O)(=O)N2CCOCC2)c1)NCC1CCCO1 (centres undefined)	4%
CCOc1ccc(NC(=O)c2cc(=O)c3cc(CC)ccc3o2)cc1	3%
Cc1csc2c(N3CCN(S(=O)(=O)c4ccc(Cl)cc4)CC3)ncnc12	5%
Fc1c(F)c(C(F)(F)F)c(F)c(F)c1N/N=C\c1cccs1	6%
COc1ccccc1N1CC(C(=O)Nc2nnc(SCc3ccccn3)s2)CC1=O (centres undefined)	0%
CCN(c1cccc(C)c1)S(=O)(=O)c1ccc(-c2coc(C)n2)cc1	-5%
Cc1cc(C)c(Cn2c3ccccc3c3cnn(CC(=O)NC4CCCCCC4)c(=O)c32)c(C)c1	10%
COCCNC(=O)c1cccc(Nc2nc(-c3ccccc3)c3cc(Cl)ccc3n2)c1	-3%
CCN(CC)S(=O)(=O)c1ccc(N/N=C(\C)c2ccc3c(c2)OCO3)c([N+](=O)[O-])c1	-29%
Nc1nc(CN2CCN(C(c3ccccc3)c3ccccc3)CC2)nc(Nc2ccccc2)n1	-7%
COC(=O)c1cc(NC(=O)CCc2c(C)nc3cc(-c4ccccc4)nn3c2C)cc(C(=O)OC)c1	-12%
CN(CC(=O)NCc1ccncc1)S(=O)(=O)c1ccccc1	0%
COc1ccc(-c2nsc(SCC(=O)Nc3cc(C)on3)n2)cc1	?
C[C@H](CO)NC(=O)[C@H](C)[C@@H]1C[C@@]1(C)[C@@H](NC(=O)OCc1ccccc1)c1ccccc1	2%
COc1ccc2ccccc2c1CN1CCCC(CO)C1 (centres undefined)	10%
COc1ccc(S(=O)(=O)N2CCN(C)CC2)c(C)c1	-7%
CCOc1ccccc1-c1noc(CCC(=O)NC2CCCCC2)n1	13%
COc1ccc(-c2cn(CCc3c[nH]c4ccccc34)nn2)cc1	11%
Cc1ccc(C)c(NS(=O)(=O)c2cc3c(cc2C)n(C)c(=O)c(=O)n3C)c1	11%
Nc1c(C(=O)Nc2ccc3c(c2)OCCO3)nnn1Cc1ccccc1	-7%

The list continues:
SMILES	VDR inh
CCc1cc(/C(Cc2cscn2)=N\O)c(O)cc1O	1%
NC(=O)C1CCN(C2=C(Cl)C(=O)c3ccccc3C2=O)CC1	?
COc1ccc(-c2cc(=O)oc3cc(OC(=O)C4CCCCC4)ccc23)cc1	9%
CC(NC(=O)c1ccc(CS(C)(=O)=O)cc1)c1cccc2ccccc12 (centres undefined)	-7%
O=C(NNc1nc2ccccc2s1)Nc1ccc(F)cc1	12%
COc1cc2ccccc2cc1C(=O)N(CCN(C)C)c1nc2c(F)cc(F)cc2s1	0%
Cc1ccc(NCc2cccn2-c2nnc(N3CCCCCC3)s2)cc1	-2%
COc1ccc(C(NC(=O)c2ccc(=O)[nH]c2)C(=O)Nc2ccc(C(C)C)cc2)cc1 (centres undefined)	-2%
CCCCCC(=O)Nc1cccc(C2=NOC3(C2)C[C@H](C(N)=O)N(C(=O)CC)C3)c1 (some centres undefined)	8%
Cc1ccc2nc(SCC(=O)N3CCOCC3)[nH]c2c1	7%
COCCCNC(=O)C(=O)NCC(c1ccc2c(c1)OCO2)N1CCOCC1 (centres undefined)	8%
COc1ccc(NC(=O)c2cc(S(=O)(=O)N3CCCC3)ccc2OC)cc1	-27%&8%
CCOC(=O)c1cccc(-n2nnc3c(sc4nc(C)c(Br)c(C)c43)c2=O)c1	17%
CCOc1ccc(Br)cc1S(=O)(=O)N1CCC(C(N)=O)CC1	-24%
C1CCN(CC2CCCCN2)CC1 (centres undefined)	0%
O=C(NCO)c1cccnc1	-15%&-3%
CC(C)Cc1nnc(NC(=O)CCC(=O)N2CCN(Cc3ccccc3)CC2)s1	8%
COc1ccc(C2C(C(C)=O)=C(C)Nc3ncnn32)cc1 (centres undefined)	-6%
CCC(C)(C)NC(=O)C(c1cccc(OC)c1OC)N(CCC(C)C)C(=O)CCC(=O)Nc1cc(C)on1 (centres undefined)	-2%
COC(=O)c1ccc(-c2c(-c3ccccc3)ncc3cc(F)ccc23)cc1	-18%
Cc1ccc(NC(=O)O/N=C/c2ccc(N(C)C)cc2)cc1	-14%
Cc1ccc(-c2onc(C)c2C)cc1S(=O)(=O)N1CC(C)Oc2ccccc21 (centres undefined)	5%
O=C(CCSc1nnc(-c2ccncc2)o1)Nc1ccccc1	10%
CCOC(=O)N1CCN(C(=S)NC(=O)c2ccnn2C)CC1	5%
COc1cccc(-c2cc(C(F)(F)F)nc(NCCc3ccc(OC)c(OC)c3)n2)c1	1%

(list continues)
SMILES	VDR inh
O=C(NN1CCOCC1)c1cccc(F)c1	-11%
CCCCCN(C(=O)CCCSc1nncs1)c1c(N)n(CCCC)c(=O)[nH]c1=O	12%
O=C(O)CNS(=O)(=O)c1ccc2c(c1)C(=O)c1cc(S(=O)(=O)NCC(=O)O)ccc1-2	5%
COc1ccc(-c2coc3c(C)c4oc(=O)c(CCC(=O)O)c(C)c4cc23)cc1	-10%
CC1(C)OC(c2ccccc2)=C/C(=C/C=Nc2ccccc2)O1	5%
Cc1ccc(S(=O)(=O)c2c(C)nn(C(C)(C)C)c2OC(=O)c2ccco2)cc1	8%
COC(=O)c1ccc(CSc2nc3c([nH]c4ccccc43)c(=O)n2-c2ccc(Cl)cc2)o1	8%
COc1ccc(N(C)S(=O)(=O)c2ccc3c(c2)CCN3C(=O)CCC(=O)O)cc1	16%
COc1cc(C(c2sc3nc(C)nn3c2O)N2CCc3ccccc3C2)cc(OC)c1OC (centres undefined)	6%
Oc1ccccc1Nc1nc2ccccc2n2nnnc12	8%
COc1ccc(-c2csc3ncnc(NCCCO)c23)cc1	2%
O=C(c1c(F)c(F)c(F)c(F)c1F)N(Cc1ccccc1)Cc1ccccc1	-1%
CCCC(=O)Nc1ccc(C(=O)N/N=C/c2ccc([N+](=O)[O-])o2)cc1	-5%
CCOC(=O)c1c(S(=O)(=O)N2CCC(C(=O)N3CCN(c4ccc(F)cc4)CC3)CC2)c(C)n(C)c1C	9%
Cc1cc(C)c(NC(=O)C2CCN(C(=O)c3ccco3)CC2)c(C)c1	8%
Cc1ccc(-c2nc(SCC(=O)Nc3cc(C)on3)c3c(=O)n(C)c(=O)n(C)c3n2)cc1	0%&2%
Cc1cc(C)n(C(=O)CNC(=O)c2ccccc2F)n1	19%
CC(=O)Nc1sc2c(c1C(c1ccccc1)N1CCOCC1)CCCC2 (centres undefined)	-4%
CN1CC(=O)N(CC(=O)Nc2ccc3c(c2)CCC3)C1=O	-2%
O=C(c1cccs1)N1CCN(S(=O)(=O)c2cccc(Cl)c2Cl)CC1	0%
O=C(CSCc1ccccc1Br)N/N=C/c1ccc(OCC(=O)N2CCCCC2)cc1	1%
O=C(COC(=O)CCOc1ccccc1)Nc1cc(S(=O)(=O)N2CCCCC2)ccc1Cl	2%
Cc1oc(CC(C)C)cc1C(N)=O	-11%
CC(C)n1c(SCC(=O)NC2CC2)nnc1-c1ccco1	-13%
COC(=O)c1ccc(CN2C(=O)c3ccccc3C2=O)o1	-9%

Further compounds.
SMILES	VDR inh
Cc1ccccc1C(=O)NCC(C)NC(=O)c1ccccc1C (centres undefined)	0%
O=C(NCCN1CCCC1)c1cccc(Cl)c1	-8%
Cc1nc2cc(NS(=O)(=O)c3cccc(F)c3)ccc2s1	-2%
CCOC(=O)c1cnc(N2CCOCC2)[nH]c1=O	11%
O=C1CC(Nc2ccccc2)C(=O)N1Cc1ccccc1 (centres undefined)	0%
COc1ccc(NC(=O)CNS(=O)(=O)c2ccc(Cl)cc2)cc1OC	-4%
O=C(CSCc1ccccc1)N1CCN(Cc2ccc3c(c2)OCO3)CC1	12%
CC1(c2nnc(-c3ccc(F)cc3)o2)CC(c2ccc([N+](=O)[O-])cc2)=NO1 (centres undefined)	-17%
CCCCn1c(SCC(N)=O)nc2sc3c(c2c1=O)CCC3	-13%
CCN1CCN(Cc2nc3ccc([N+](=O)[O-])cc3c(=O)n2-c2ccc(OC)cc2OC)CC1	8%
CC(=O)Nc1ccc(S(=O)(=O)N(C)CCOCc2ccccc2)cc1	16%
COCc1cc(C)nc(Nc2cc(C)ccc2C)c1C#N	-1%
CCCN(CC(=O)Nc1ccccc1C)C(=O)c1ccc(S(=O)(=O)N2CCCC2)cc1	4%
COc1cccc(-c2nnc(SCC(=O)N3CCC(C)CC3)o2)c1	-2%
O=c1c2sc3ccccc3c2n(Cc2cccc(F)c2)c(=O)n1Cc1ccccc1	-12%
Cc1ccccc1S(=O)(=O)Nc1ncnc2sccc12	-21%
CCN(CC)c1ccc(NC(=O)C(Cc2ccccc2)NS(=O)(=O)c2ccc(Br)s2)c(C)c1 (centres undefined)	5%
Cc1cc(C)c(NC(=O)CS(=O)CC(=O)NC2CCCc3ccccc32)c(C)c1 (centres undefined)	-4%
Cc1cc(N)c(-n2cc3c(=O)n(C)c(=O)n(C)c3c2)cc1C	-4%
COc1ccc(Cn2nnnc2C(C(C)C)N2CCN(c3ccccc3OC)CC2)cc1 (centres undefined)	-10%
C#C[C@]1(O)CC[C@H]2[C@@H]3CCc4cc(OC)ccc4[C@H]3CC[C@@]21C	-18%&2%
C=C(C)Cn1c(=O)c2c(nc3n2CCN3c2cccc(Cl)c2C)n(C)c1=O	-16%
OC(COCCC12CC3CC(CC(C3)C1)C2)CN1CCCCC1 (centres undefined)	-2%
C=C(C)C(O)COc1c2occc2c(OC)c2ccc(=O)oc12 (centres undefined)	2%
O=C(CSc1nc2ccccc2o1)NC(=O)NCc1ccccc1	-9%

(listing goes on)
SMILES	VDR inh
CCC(CO)N=CC1=C(O)CC(c2ccccc2)CC1=O (centres undefined)	5%
COc1ccc(Cl)cc1NC(=S)NCCSc1ccc(C)cc1	-6%
CC(C)CNS(=O)(=O)c1ccc(CCC(=O)N2CCC(C(N)=O)CC2)cc1	29%
Cc1cccc(NCC(O)Cn2cnc3c2c(=O)n(C)c(=O)n3C)c1 (centres undefined)	6%
O=C(NCC(=O)N1CCCCCCC1)c1ccc(Cl)cc1	-37%
Cc1csc(C(=O)O)c1-c1c(C)csc1C(=O)O	9%
Cc1cccc(NC(=O)c2onc3c2CCCC3)n1	-8%
COc1cc(/C=C\C(=O)N2CCC=CC2=O)cc(OC)c1OC	?
COc1ccccc1NS(=O)(=O)c1cc(NC(=O)CNC(=O)c2ccccc2)ccc1C	4%
O=C(Nc1ccc([N+](=O)[O-])cn1)C1CCCCC1	-19%
Cc1cccc(N(CC(N)=O)C2SC(=O)N(Cc3cccc(C(=O)O)c3)C2=O)c1 (centres undefined)	-4%
COc1cccc(NC(=O)CN(C)C(=O)c2cc3c(s2)CCCC3)c1	19%
COc1ccccc1C(C)NC(=O)CCOc1cccc(C)c1 (centres undefined)	11%
O=C(O)/C=C/c1ccc2c(-c3ccccc3)onc2c1	-1%
Cc1cc(Cl)ccc1NC(=S)N1CCN(C(=O)c2ccco2)CC1	-15%
Cc1ccc(Nc2ncnc3nc[nH]c23)cc1	0%
CCc1c(O)nc(SCC(=O)Nc2ccc(C)cc2)n(C2CCCCC2)c1=O	-5%
COc1cccc(C2c3[nH]c4ccccc4c3CCN2Cc2cccn2-c2ncccn2)c1 (centres undefined)	18%
O=C(Cc1ccc(Cl)cc1)Nc1ccccn1	-17%
O=C(CCCc1ccccc1)c1ccc2c(c1)OCCO2	15%
CCN(CC)c1ccc(CNC(=O)C/C(C)=N/NC(=O)COc2ccc(C)cc2Br)cc1	-16%
COCCn1c(CCC(=O)Nc2cc(C)ccc2C)nc2cccnc21	8%
COc1cccc(N2CCN(c3ncnc4c3[nH]c3ccc(F)cc34)CC2C)c1 (centres undefined)	1%
CC(=O)Nc1ccc(S(=O)(=O)N(C)CC(=O)OC(C)C(=O)N(C)Cc2ccccc2)cc1 (centres undefined)	-5%

Individual results from above.
`CCCC(=O)Nc1ccc(C(=O)N/N=C/c2ccc([N+](=O)[O-])o2)cc1` | VDR inh: -5%
`COc1cccc(N2CCN(c3ncnc4c3[nH]c3ccc(F)cc34)CC2C)c1` (centres undefined) | VDR inh: 1%

Shown comma-delimited: 16 of the compounds above.
SMILES,VDR inh
COc1ccccc1NS(=O)(=O)c1cc(NC(=O)CNC(=O)c2ccccc2)ccc1C,4%
O=C(Nc1ccc([N+](=O)[O-])cn1)C1CCCCC1,-19%
Cc1cccc(N(CC(N)=O)C2SC(=O)N(Cc3cccc(C(=O)O)c3)C2=O)c1 (centres undefined),-4%
COc1cccc(NC(=O)CN(C)C(=O)c2cc3c(s2)CCCC3)c1,19%
COc1ccccc1C(C)NC(=O)CCOc1cccc(C)c1 (centres undefined),11%
O=C(O)/C=C/c1ccc2c(-c3ccccc3)onc2c1,-1%
Cc1cc(Cl)ccc1NC(=S)N1CCN(C(=O)c2ccco2)CC1,-15%
Cc1ccc(Nc2ncnc3nc[nH]c23)cc1,0%
CCc1c(O)nc(SCC(=O)Nc2ccc(C)cc2)n(C2CCCCC2)c1=O,-5%
COc1cccc(C2c3[nH]c4ccccc4c3CCN2Cc2cccn2-c2ncccn2)c1 (centres undefined),18%
O=C(Cc1ccc(Cl)cc1)Nc1ccccn1,-17%
O=C(CCCc1ccccc1)c1ccc2c(c1)OCCO2,15%
CCN(CC)c1ccc(CNC(=O)C/C(C)=N/NC(=O)COc2ccc(C)cc2Br)cc1,-16%
COCCn1c(CCC(=O)Nc2cc(C)ccc2C)nc2cccnc21,8%
COc1cccc(N2CCN(c3ncnc4c3[nH]c3ccc(F)cc34)CC2C)c1 (centres undefined),1%
CC(=O)Nc1ccc(S(=O)(=O)N(C)CC(=O)OC(C)C(=O)N(C)Cc2ccccc2)cc1 (centres undefined),-5%

Source: PubChem
